Bioassay records (PubChem)
Sa ugtP lethal – compounds lethal to S. aureus RN4220 ugtP deletion mutant; growth inhibition, % (concentration not given with the values); 0.54% of 330,000 active; AID 1259309; OD600 growth, 16 h; some inactives read as strong as hits;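 active = z-score under -3 and OD600 up to 0.15 on both plates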;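 note: plate controls were untreated wells for no effect and antibiotic for full effect; wells of about 80 µL received 100 nL stock; the first replicate is given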
BJeLR lethal – BJeLR cell viability loss | BJeLR (HRASV12) viability, CellTiter-Glo ATP luminescence, 48 h; reference of the scale not given here | inhibition, % (concentration not given with the values) | 0.17% of 300,000 active;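 active = replicate mean above 50%; inconclusive = above 50% but judged a plate artefact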;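 note: 50 nL library stock added to about 25 µL; numbers are from one replicate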
Bead autofluor – counter-screen for toxin protease inhibitors: compound fluorescence. compound autofluorescence counterscreen, microsphere flow cytometry; stronger effect = higher value. fluorescence intensity (test concentration not listed). 3.1% of 360,000 active. AID 624483;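 active = at least 3 SD above the mean of all compounds, about 16000 in these data; inconclusive = too few beads counted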;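 note: 100 nL of 1 mM stock went into each well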
RN4220 kill – S. aureus RN4220 growth inhibition. OD600, 16 h. inhibition, % (no concentration beside the values). 0.33% of 330,000 active;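 active = z-score of -3 or lower and OD600 up to 0.18 on both plates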;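 note: plate controls were untreated cells for no effect and reference antibiotic for full effect; stock transfer was 100 nL into about 80 µL; one replicate is shown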
PrP UTR inh – suppresses PrP 5' UTR mRNA reporter expression. cell-based PrP 5' UTR mRNA reporter, plate reader. inhibition, % (test concentration not listed). 0.35% of 340,000 active. AID 488862;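 active = every replicate at 50% or more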;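 note: 0 = median of the neutral control wells; tested in H4 reporter cells; numbers are from one replicate; inactives centre near -14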
Mtb hypoxia rep – Mtb hypoxia fluorescent reporter inhibition | 0.1% of 300,000 active | fluorescence inhibition, % (concentration not given with the values) | M. tuberculosis hypoxia-regulated fluorescent reporter, fluorescence;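 active = 35 to 45% if threefold the growth effect, above 45% if 1.5-fold the growth effect; inactive = the rest, general growth blockers included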;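 note: wells of about 50 µL received 100 nL stock; 0% = vehicle wells and 100% = reference inhibitor wells; whole bacteria with a GFP reporter of the hypoxia response; strong numbers were not always called active; many hits fall short of the cut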
Mtb hypoxia rep growth – further read-out of Mtb hypoxia rep, marked with its call; growth inhibition, %; measured here: M. tuberculosis growth (absorbance);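 0% = vehicle and 100% = reference antibiotic; read after six days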
An asterisk follows results filed as active; u = inconclusive; x = no result given.

SMILES	Sa ugtP lethal	BJeLR lethal	Bead autofluor	RN4220 kill	PrP UTR inh	Mtb hypoxia rep	Mtb hypoxia rep growth
Cc1csc(NC(=O)c2sc3nc(-c4cccs4)ccc3c2N)n1	-4	-14	x	11	x	-5	0
COc1ccc(N2CCN(C(=O)COC(=O)CCOc3ccc(C(C)(C)C)cc3)CC2)cc1	2	6	u	1.4	-1	0	11
Cc1cc(C)c(S(=O)(=O)Nc2ccc(O)cc2)c(C)c1	23	-8	3597	1.9	-6	17	7
COc1ccc(C(=O)Nc2cccnc2)cc1C(=O)Nc1cccnc1	-1	-1	6196	3.1	5	8	-2
Cc1ccc(C)c(S(=O)(=O)Nc2ccc(C(=O)NCCCN3CCCC3=O)cc2)c1	-1	7	5300	-3.7	-4	3	8
CCOc1ccc(N(CC(=O)NCC(C)C)S(C)(=O)=O)cc1	-3	9	u	2.2	-8	6	0
N#C/C(=C\c1c(F)cccc1Cl)C(=O)NC1CC1	-4	3	6142	11	1	-2	0
CCOC(=O)N1CCN(C(=O)/C=C/c2ccc([N+](=O)[O-])cc2)CC1	0	0	2044	3.7	-15	8	8
O=C(N/N=C/c1ccc([N+](=O)[O-])o1)c1cn2ccc3ccccc3c2n1	x	-4	4208	x	-41	x	x
CC(Oc1ccccc1)C(=O)Nc1nnc(S(=O)(=O)N2CCCCC2)s1 (stereo unspecified)	6	5	4555	1.1	1	13	3
Cc1ccccc1C(=O)N1CCN(c2ccc([N+](=O)[O-])c(N3CCOCC3)c2)CC1	2	-1	x	0.9	-12	x	x
CN(c1cccc(NC(=O)COc2ccc(Cl)cc2Cl)c1)S(C)(=O)=O	4	-7	2829	-5.6	-43	x	x
O=C(CN(Cc1ccc(F)cc1)C(=O)c1ccco1)NCc1ccc(F)cc1	11	-4	4049	0.6	-22	x	x
CC(C)N(C(=O)Nc1ccc2nsnc2c1)C(C)C	7	2	x	1.9	x	-2	10
CCOc1ccc(S(=O)(=O)N2c3ccccc3CC2C)cc1 (stereo unspecified)	2	12	9961	6.4	21	-6	4
CC(C)CC(CO)N1CCN(CCc2ccccc2)CCC1=O (stereo unspecified)	3	x	x	3.1	x	-8	-7
CCc1nc2ccc(Br)cc2c(=O)n1-c1ccccc1C(F)(F)F	8	2	4790	0.2	-13	x	x
COc1cccc(CNCC(=O)NC(=O)NC2CCCC2)c1	3	x	3421	1.4	-25	14	2
COCC(C)n1c(C)cc(C(=O)COC(=O)c2nc3nc(C)cc(C)n3n2)c1C (stereo unspecified)	-2	5	8762	1.7	-26	18	5
O=C(NCCS(=O)(=O)c1ccc(Br)cc1)c1ccccc1	11	-2	4504	5.7	-3	3	-8
NC(=O)c1nn(-c2ccc(Oc3ccccc3)cc2)c(=O)cc1O	8	2	4640	2.0	-26	1	-6
CC(=O)N(CCO)Cc1cc2cc(C)cc(C)c2[nH]c1=O	5	8	3407	8.6	-26	9	7
CCc1nccn1S(=O)(=O)c1cc(OC)c(Cl)cc1OC	6	-18	1962	-0.4	-7	-3	-1
Nc1nc(Cl)nc2c1ncn2[C@H]1C[C@H](O)[C@@H](CO)O1	x	-15	4382	x	27	x	x
COc1cc(NS(=O)(=O)c2ccc(NC(=O)c3cccs3)cc2)nc(OC)n1	3	-2	4038	5.1	-9	-10	3
Cc1ccc(C(=O)COc2ccccc2-c2ccccc2)cc1C	18	6	9691	2.0	-37	9	2
C#CCNC(=O)C1=C[C@H](C2CC2)C[C@H](OCCCCO)O1	x	-3	4079	x	-17	x	x
N#CCCn1nc(-c2ccccc2)c2ccccc2c1=O	6	-12	3996	3.7	-12	3	2
COc1ccc(C=NNC(=O)CCc2nc3ccccc3[nH]2)cc1	1	x	x	5.7	x	15	3
CCCNc1sc(S(=O)(=O)CCC)nc1S(=O)(=O)c1ccc(C)cc1	-5	5	4361	2.0	-20	-3	3
CCc1ccc(NC(=O)CCn2nc(C)c(S(=O)(=O)N3CCCCC3)c2C)cc1	-6	5	5833	-1.7	-13	-9	-21
CN1CCCN(C(=O)COc2ccc(F)cc2F)CC1	7	-4	4899	4.4	-16	3	-5
COC(=O)NC(NC(=S)Nc1ccc([N+](=O)[O-])cc1)C(Cl)(Cl)Cl (stereo unspecified)	-44	-13	10011	-6.2	-9	1	-1
Cc1n[nH]c(=S)n1N=Cc1ccccc1OCc1ccc(Cl)cc1	-8	x	x	10	x	6	9
COCCNC(=O)C(OC(=O)CC1Sc2ccccc2NC1=O)c1ccncc1 (stereo unspecified)	-2	1	6327	0.4	-21	-2	-1
CC(Nc1ccc(F)cc1F)C(=O)NC(=O)NC1CCCCC1 (stereo unspecified)	-8	6	4766	-2.6	-31	2	-4
Cc1ccc(S(=O)(=O)N(CC(=O)NCCSc2ccccn2)c2cc(C)cc(C)c2)cc1	-9	-6	2750	2.7	-10	x	x
CCn1cc(C(=O)NCCCOC)c2cc(OC)c(OC)cc2c1=O	-4	1	8792	4.9	0	4	8
Cc1ccc(CN2CCN(C(=O)C3CCC3)CC2)cc1	11	3	22954*	5.8	-2	3	6
COc1ccc2c(c1)CCc1cnoc1-2	5	x	3423	4.4	-11	0	7
CC(=O)c1cc2c(cc1NS(=O)(=O)c1ccc(F)cc1)OCO2	10	-9	3737	5.7	-30	5	9
O=C1CC(SCc2nc3ccccc3[nH]2)C(=O)N1c1ccc(Cl)cc1 (stereo unspecified)	3	4	4982	7.6	-12	-3	-2
COc1ccc(C2=NOC(C(=O)Nc3cc(C)nn3-c3ccccc3)C2)cc1OC (stereo unspecified)	4	0	5322	-7.9	-7	3	5
COc1ccc(C(C)NC(=O)c2ccncc2)cc1OC (stereo unspecified)	4	9	5559	-3.9	-3	-2	-1
COc1ccc(Cc2nnc(SCC(=O)NC3(C#N)CCCCC3)n2N)cc1	9	-1	4623	3.5	4	11	3
COc1ccc(-c2ocnc2C(=O)N2CCN(C(=O)C(c3ccccc3)c3ccccc3)CC2)cc1	1	-5	3629	-1.3	-8	-13	2
S=c1[nH]nc(-c2ccccc2)n1/N=C/c1ccc(-c2ccccc2Cl)o1	x	25	11329	x	-24	x	x
O=C(O)CCNc1ccc2c(c1)OCCO2	9	3	2433	4.7	-10	7	-9
CC(C)(C)c1ccc(-n2ncc3c2CCCC3NC(=O)c2cnccn2)cc1 (stereo unspecified)	-9	7	4378	-4.5	-15	-3	-7
COc1ccc2oc(/C=C/N(C)C)c(C(=O)c3ccc(Cl)cc3)c2c1	34	6	8553	-4.3	-11	5	8

Reformatted with each value named: four of the compounds above.
COc1ccc(C(C)NC(=O)c2ccncc2)cc1OC (stereo unspecified)
- Sa ugtP lethal = 4
- BJeLR lethal = 9
- Bead autofluor = 5559
- RN4220 kill = -3.9
- PrP UTR inh = -3
- Mtb hypoxia rep = -2
- Mtb hypoxia rep growth = -1

COc1ccc(Cc2nnc(SCC(=O)NC3(C#N)CCCCC3)n2N)cc1
- Sa ugtP lethal = 9
- BJeLR lethal = -1
- Bead autofluor = 4623
- RN4220 kill = 3.5
- PrP UTR inh = 4
- Mtb hypoxia rep = 11
- Mtb hypoxia rep growth = 3

COc1ccc(-c2ocnc2C(=O)N2CCN(C(=O)C(c3ccccc3)c3ccccc3)CC2)cc1
- Sa ugtP lethal = 1
- BJeLR lethal = -5
- Bead autofluor = 3629
- RN4220 kill = -1.3
- PrP UTR inh = -8
- Mtb hypoxia rep = -13
- Mtb hypoxia rep growth = 2

S=c1[nH]nc(-c2ccccc2)n1/N=C/c1ccc(-c2ccccc2Cl)o1
- Sa ugtP lethal = x
- BJeLR lethal = 25
- Bead autofluor = 11329
- RN4220 kill = x
- PrP UTR inh = -24
- Mtb hypoxia rep = x
- Mtb hypoxia rep growth = x

Carrying on:
SMILES	Sa ugtP lethal	BJeLR lethal	Bead autofluor	RN4220 kill	PrP UTR inh	Mtb hypoxia rep	Mtb hypoxia rep growth
COc1cc(OC)cc(C(=O)NC(=S)Nc2ccc3c4c(cccc24)CC3)c1	28	-4	2605	-11	-17	x	x
N#Cc1ccc(CSc2nnc(Cc3cccs3)n2Cc2ccco2)cc1	-6	0	3336	-6.5	-4	3	9
CCCc1cc(=O)oc2cc(OCC(=O)OC)cc(OCC(=O)OC)c12	0	-2	x	-3.7	x	4	8
CN(C)/C=C1\C(=O)ON=C1c1ccccc1	6	4	1930	4.2	1	17	2
CCc1ccc(NC(=O)C2CCCN(S(=O)(=O)c3c(C)[nH]c(=O)[nH]c3=O)C2)cc1 (stereo unspecified)	1	1	4843	0.7	-13	1	4
CCCN1CCCc2ccccc21	8	5	3582	5.6	-36	1	5
Cc1ccc(-c2nnc(-c3cccc4ccccc34)o2)cc1	-14	x	2851	2.3	-62	20	19
COc1ccccc1-c1nnc2sc(-c3ccc(N(C)C)cc3)nn12	-13	53*	9720	6.7	21	8	5
COc1ccc2occ(C(C)=O)c2c1	17	0	5132	6.3	-2	9	10
CCOC(=O)c1sc(C)c2c(=O)n(Cc3ccc(Cl)cc3)c(C)nc12	-4	7	4303	3.4	-17	-7	-2
O=C(CSc1nnnn1-c1ccc(F)cc1)Nc1ccccc1F	8	0	3954	-1.0	-14	3	3
CC(C)C(NC(=O)c1ccccc1F)C(=O)Nc1nccs1 (stereo unspecified)	2	7	3227	11	-27	9	6
CCN1CC2C3C(=O)N(C)C(=O)C3[C@](Cc3ccccc3)(C1=O)N2C(=O)c1ccc(C(C)(C)C)cc1 (stereo partly specified)	0	x	x	9.9	x	-4	4
CN(C)C(=O)c1ccc(NC(=O)COC(=O)CCN=C2NS(=O)(=O)c3ccccc32)cc1	2	x	3719	3.5	-8	1	0
O=C(COc1ccccc1F)Nc1ccc2[nH]c(=O)[nH]c2c1	-8	0	x	-1.7	-5	-2	8
C/C=C/c1ccc(OCCCCN2C(=O)NC(C)(C)C2=O)c(OC)c1	1	-4	10427	2.8	-3	13	23
Cc1ccc(NC(=O)CSc2nn(-c3ccccc3)c(=S)s2)cc1S(=O)(=O)N(C)C	6	14	1918	-4.1	-15	-3	0
O=C(C1CCN(S(=O)(=O)c2cccc3nonc23)CC1)N1CCCCC1	2	-8	3656	1.9	-11	2	5
N=c1c(C(=O)NCc2ccc(F)cc2)cc2c(=O)n3ccccc3nc2n1CC1CCCO1 (stereo unspecified)	-7	0	3489	-14	-2	10	10
COc1ccc2[nH]c(CN3CCN(CC(C)C)C(CCO)C3)c(C)c2c1 (stereo unspecified)	1	-6	4470	-5.4	-2	8	2
O=C1NCCCC1C(=O)N1CCN(C(=O)c2ccco2)CC1 (stereo unspecified)	-2	-3	5892	3.1	-14	18	2
O=C(CN1C(=O)c2ccccc2C1=O)Nc1ccccc1	7	-4	4093	4.3	-9	2	-3
CNC(C)C#Cc1ccc2c(=O)c3cc(C)c(C)cc3oc2c1 (stereo unspecified)	7	-5	6621	6.9	-40	13	25
C/C(=N\NC(=S)Nc1ccc(C)c(C)c1)c1ccc(N2CCOCC2)cc1	x	11	2379	x	2	x	x
C=C(C)C1CC=C(C)C(=NNC(=O)CCC(=O)Nc2ccc(C)c(C)c2)C1 (stereo unspecified)	6	x	x	6.2	x	-2	-2
CC(C)CC(=O)/C=C/n1c(=S)oc2ccccc21	11	4	10100	0.2	-7	2	6
C/C(=N/NC(=O)CCc1c(C)n[nH]c1C)c1cccc([N+](=O)[O-])c1	x	-3	4263	x	-15	x	x
CC(C(=O)Nc1ccc2ccccc2c1)C1C[C@@]1(C)C(NC(=O)OCc1ccccc1)c1ccccc1 (stereo partly specified)	-2	x	x	-6.4	x	-5	-2
Cc1ccc(NC(=O)CN2C(=O)N/C(=C/c3ccccc3OCc3cccc(C(=O)O)c3)C2=O)cc1	4	0	3549	3.8	-40	7	-8
CN(C)CCOC1c2ccccc2-c2ccccc21	3	-1	3541	-1.8	-40	11	-6
COc1ccc(C(C)=O)cc1CN1C(=O)NC2(CCCC2)C1=O	5	8	4301	5.5	-36	4	0
NC(=O)NN=Cc1cn(-c2ccccc2)nc1-c1cccs1	3	x	x	-0.4	x	11	13
Cn1c(O)c(/C=N/N2CCOCC2)c(=O)[nH]c1=S	7	-10	x	4.5	x	-1	7
O=C(C[n+]1ccccc1)N/N=C/c1cccs1	x	4	2630	x	-30	x	x
COCCCNC(=O)[C@H]1N2C(=O)c3ccccc3C2SC1(C)C (stereo partly specified)	3	3	3755	2.4	-7	7	8
Cc1cc(NC(=O)COc2cccc(Oc3ccccc3)c2)no1	21	15	2289	27	-17	-5	2
